Autofluor counter: flagged as autofluorescent in microsphere protease counterscreen | compound autofluorescence counterscreen, microsphere flow cytometry; active compounds read high | AID 624483 | fluorescence intensity (concentration not given with the values) | 360,000 compounds, 3.1% hits;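 active means at least 3 SD above the mean of all compounds, about 16000 in these data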;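 further: 100 nL of 1 mM stock went into each well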
Numbers without * were called inactive. Not all compounds are listed; count on the stated rates, not on these rows.

SMILES	Autofluor counter
CC1(C(=O)Nc2ccc3[nH]ncc3c2)CCN1C(=O)CC(c1ccccc1)c1ccccc1 (stereo unspecified)	3762
CCCCNc1nc2c(c(=O)[nH]c(=O)n2C)n1CCCc1ccccc1	3950
C[C@H]1CN([C@@H](C)CO)C(=O)CCCn2nncc2CO[C@@H]1CN(C)Cc1ccncc1	3527
CCS(=O)(=O)C1C(=O)N(C)C(S(=O)(=O)CC)C(=O)N1C (stereo unspecified)	3725
COCc1cccc(-c2csc(C(N)c3ccc(F)c(F)c3)n2)c1 (stereo unspecified)	3493
CCCCn1nnnc1C1(C)CCC(=O)N1CC1CCCCC1 (stereo unspecified)	5009
Cc1ccc(S(=O)(=O)N2[C@H](c3ccccc3)CC(=O)[C@@H]3CN(S(=O)(=O)c4ccccc4C)[C@H](c4ccccc4)C[C@@H]32)cc1	6738
COc1ccccc1-c1cnc(C(O)c2ccc(CN3CCCC3)cc2)[nH]1 (stereo unspecified)	3808
CCCS(=O)(=O)NC(=O)C1(C)CCCN(C(=O)c2ccccc2OC(F)(F)F)C1 (stereo unspecified)	2876
Cc1nn(-c2ccccc2)nc1C(=O)Nc1cccc(C(=O)NC2CC2)c1	4085
Cc1c(C(=O)/C=C/c2ccccc2F)c2cc(O)ccc2n1C	3897
Clc1ccc(NN(Cc2ccncc2)c2ccc(Cl)cc2)cc1	3852
COCCNC(=O)C1(C)CCCN(Cc2ccc(Cl)nc2)C1 (stereo unspecified)	3632
O=[N+]([O-])c1cc2c(c([N+](=O)[O-])c1)Nc1ccccc1O2	4137
CC(C)CC1NC(=O)c2cc3ccccc3cc2-n2c1nc1cc(Cl)ccc1c2=O (stereo unspecified)	3008
CSc1ccc(CN2CCC2(C)C(=O)NCc2ccccc2Br)cc1 (stereo unspecified)	3882
CC(C)C1C(=O)N(Cc2cn(CCC3OCCCO3)nn2)CCS(=O)(=O)N1Cc1ccc(-c2ccc(Cl)nc2)cc1 (stereo unspecified)	3737
COc1ccc(S(=O)(=O)N2CCCCC2c2cc(C(=O)NCc3ccccc3)no2)cc1 (stereo unspecified)	3863
O=C(NCc1ccccc1CN1CCCC1)c1ccc(S(=O)(=O)Nc2ccccc2F)cc1	3508
COc1cccc(CNC(=S)Nc2ccc3c(c2)c(=O)n(C)n3Cc2ccc(F)cc2)c1	3496
COc1ccc(-n2nnnc2C(c2ccccc2)N2CCN(C/C=C/c3ccccc3)CC2)cc1 (stereo unspecified)	4222
CCC1(c2ccc(C)cc2)C(=O)NC(=S)NC1=O	6185
CC(=O)c1c(C)[nH]c(C(=O)Nc2ccc(N3CCCCCC3)cc2)c1C	3440
COc1ccc(CC(N)c2csc(NC(=O)Nc3ccccc3Oc3ccccc3)n2)cc1 (stereo unspecified)	3781
COc1ccc2c(c1)c[n+](C)c1c3cc(OC)c(OC)cc3ccc21	5933

Of the compounds above, two have two or more sulfur atoms.
SMILES	Autofluor counter
CCS(=O)(=O)C1C(=O)N(C)C(S(=O)(=O)CC)C(=O)N1C (stereo unspecified)	3725
Cc1ccc(S(=O)(=O)N2[C@H](c3ccccc3)CC(=O)[C@@H]3CN(S(=O)(=O)c4ccccc4C)[C@H](c4ccccc4)C[C@@H]32)cc1	6738

Pulled one by one from above (6):
SMILES	Autofluor counter
CCCS(=O)(=O)NC(=O)C1(C)CCCN(C(=O)c2ccccc2OC(F)(F)F)C1 (stereo unspecified)	2876
COCc1cccc(-c2csc(C(N)c3ccc(F)c(F)c3)n2)c1 (stereo unspecified)	3493
COc1ccc(S(=O)(=O)N2CCCCC2c2cc(C(=O)NCc3ccccc3)no2)cc1 (stereo unspecified)	3863
COc1ccc(-n2nnnc2C(c2ccccc2)N2CCN(C/C=C/c3ccccc3)CC2)cc1 (stereo unspecified)	4222
O=[N+]([O-])c1cc2c(c([N+](=O)[O-])c1)Nc1ccccc1O2	4137
COCCNC(=O)C1(C)CCCN(Cc2ccc(Cl)nc2)C1 (stereo unspecified)	3632

Further entries
SMILES	Autofluor counter
COc1ccc(S(=O)(=O)N(C)C[C@@H]2OCCCC[C@@H](C)Oc3ccc(NC(=O)NC(C)C)cc3C(=O)N([C@H](C)CO)C[C@@H]2C)cc1	3777
COC(=O)[C@]12CCCCC=C1N(Cc1ccccc1)C(=O)[C@H](CC(=O)NCCc1ccccc1OC)C2	5590
Cc1ccccc1S(=O)(=O)NC(=O)C1(C)CCN1C(=O)Cc1ccccc1Cl (stereo unspecified)	3844
CC1(C(=O)NS(=O)(=O)c2ccc(Cl)cc2)CCN1C(=O)Cc1ccc(-c2ccccc2)cc1 (stereo unspecified)	3758
CS(=O)(=O)c1ccc(C2=C(CNC(=O)c3nccs3)[C@H]3CC[C@@H](C2)N3CCOc2ccccc2)cc1	3405
Cc1ccc2nc(-c3ccccn3)c(N)n2c1	5253
CCOc1ccc(C(=O)CCC(=O)NCC(=O)Nc2ccc(F)c(F)c2F)cc1	3941
O=C(NCc1cc(Cl)cc(Cl)c1)c1csc([C@@H]2O[C@H](CO)[C@H](O)[C@H](O)[C@H]2O)n1	3677
CC1(C(=O)Nc2ccc3ccccc3c2)CCC(=O)N1C1CCN(Cc2ccccc2)CC1 (stereo unspecified)	4772
CCOC(=O)c1cc(-c2sc(NC(=O)c3ccccc3)nc2C)n(Cc2ccccc2)n1	3384
COc1ccc(-c2oc3c(c2C#CCCCCO)C(OCCO)CC3)cc1 (stereo unspecified)	5322
CCc1nn2c(=O)c(F)c(N3CCNCC3)nc2s1	3822
Cc1ccc(NC(=O)C2(C)CCN2CCc2ccccc2)cc1 (stereo unspecified)	3950
CCCOc1ccc(F)cc1-c1cc(C(=O)Nc2ccc(OC)c(OC)c2)[nH]n1	3766
CC(C)CCn1nc(C(=O)OCC(=O)NC(C)c2ccccc2)c2ccccc2c1=O (stereo unspecified)	3402
O=C(COC(=O)c1cccc(Cl)c1Cl)NC1CCCCCC1	3647
CC1CCCCN1C(=S)Nc1ccc(S(=O)(=O)N2CCCCC2)cc1 (stereo unspecified)	2737
Cc1ccc(S(=O)(=O)N(CC(=O)NC2CC3CCC2C3)c2ccccc2)cc1 (stereo unspecified)	3927
C[C@H]1CN([C@@H](C)CO)C(=O)CCCn2nncc2CO[C@H]1CN(C)C(=O)c1ccccc1	3443
CC1=C(C(=O)N(C(C)C)C(C)C)CC(CC(=O)NCc2cccs2)C(=O)N1Cc1ccc(C(C)(C)C)cc1 (stereo unspecified)	4296
CCc1nc2ccc(C(=O)Nc3cccc(NS(C)(=O)=O)c3)cn2c1N(CC)Cc1cccc(Br)c1	3835
O=C(Nc1ccccc1Cl)c1cc(C2CCCN(C(=O)CCCc3ccccc3)C2)on1 (stereo unspecified)	2991
COc1cc(CNc2ncnc3c2ncn3[C@H]2CN(Cc3cccc4ccccc34)C[C@@H](CO)O2)cc(OC)c1OC	3705
C[C@H]1CN([C@@H](C)CO)C(=O)CCCn2nncc2CO[C@@H]1CN(C)C(=O)c1ccncc1	3538
CCOC(=O)C1CCCN(C(=O)c2cc(C(C)(C)C)nn2C)CC1 (stereo unspecified)	3444
Later entries:
SMILES	Autofluor counter
C#CCN(C[C@H]1[C@H](OC(=O)NCc2ccco2)[C@H](OC(=O)NCc2ccco2)C[C@@H](C(=O)OC)[C@H]1C(=O)OC)S(=O)(=O)c1ccc(C)cc1	3799
COc1cccc(-c2cnc3c(NC=O)cc(-c4ccncc4)cn23)c1	3794
O=C(NC1CCCCC1)N1Cc2cc(N3CCCCC3)ccc2-n2nncc2C1	8020
Cc1cccc(C(=O)N2CCC(=O)N([C@H](COCc3ccc(Cl)cc3)Cc3ccccc3)CC2)c1	5883
O=C(C[n+]1ccccc1)N/N=C/c1ccc(Br)cc1	4368
CC1(C(=O)NC2CCN(Cc3ccccc3)CC2)CCN1CCc1ccccc1 (stereo unspecified)	3607
O=C(NCc1ccc2c(c1)OCO2)C(=O)NCC1OCCCN1S(=O)(=O)c1ccccc1 (stereo unspecified)	3779
CC(C)C[C@@H](CN1CCC[C@H]1CN1C(=O)C(=O)NC[C@@H]1Cc1ccc(O)cc1)N1C[C@H](Cc2ccccc2)N(CC2CCCCCC2)C(=O)C1=O	4377
CCCc1nc2c(C)cc(Br)cn2c1Cc1ccccc1	6688
COC(=O)Cn1c(C(=O)N(C)C)cc2c1C[C@H]1CN(C(=O)c3ccccc3)[C@@](Cc3ccc(F)cc3)(C(=O)OC)[C@@H]21	5378
CC(C)OCCCNC(=S)N1CCC(C(=O)c2ccc(F)cc2)CC1	3740
CC1(c2nnnn2Cc2ccccc2)CCC(=O)N1Cc1cccs1 (stereo unspecified)	6478
CCCCN(C)C(=O)c1[nH]c(C(F)(F)F)nc1-c1ccccc1	5951
COc1ccc(/C=C(/NC(=O)c2ccc(Br)cc2)C(=O)Nc2cccc(C(=O)O)c2)cc1	3897
Cn1ccc2c(N3CCOCC3)cc3c(c21)C1CCC3C1 (stereo unspecified)	4173
Cc1ccc(S(=O)(=O)N2CCC(=O)N([C@H](COCc3ccc(Cl)c(Cl)c3)Cc3ccccc3)CC2)cc1	5591
OCc1nc2ccccc2n1CCCc1ccccc1	3466
CC(=O)NC(c1ccc(F)c(F)c1)c1nc(-c2ccc3c(c2)OCO3)cs1 (stereo unspecified)	3897
CCc1cccc(CC)c1N1C(=O)CC(Sc2ccccc2N)C1=O (stereo unspecified)	4128
O=C(C1CCCCC1)N1C[C@H](n2cc(C3CC3)nn2)[C@@H](O)C[C@@H]1c1ccccc1	3292
O=C1NC[C@H](CCCCN2C[C@@H](Cc3ccccc3)N(CC3CCCCC3)C(=O)C2=O)N(CCC2CCCCC2)C1=O	5806
CC(=O)Nc1ccc(CNc2nc3cc(-c4ccc(F)cc4)sc3c(=O)n2C)cc1	3639
O=C1NC[C@H](Cc2ccc(O)cc2)N(C[C@@H]2CCCN2C[C@H](Cc2ccccc2)N2C[C@H](Cc3ccccc3)N(CC3CCCCC3)C(=O)C2=O)C1=O	7012
C=CCNc1ncnc2c1ncn2[C@H]1CN(Cc2ccccc2)C[C@@H](CO)O1	3466
COc1cc(OC)nc(Nc2nc(C(N)Cc3ccc(C(F)(F)F)cc3)cs2)n1 (stereo unspecified)	3038

Rewritten as a markdown table: entries from further up.
| Compound | Autofluor counter |
| --- | --- |
| C#CCN(C[C@H]1[C@H](OC(=O)NCc2ccco2)[C@H](OC(=O)NCc2ccco2)C[C@@H](C(=O)OC)[C@H]1C(=O)OC)S(=O)(=O)c1ccc(C)cc1 | 3799 |
| COc1cccc(-c2cnc3c(NC=O)cc(-c4ccncc4)cn23)c1 | 3794 |
| O=C(NC1CCCCC1)N1Cc2cc(N3CCCCC3)ccc2-n2nncc2C1 | 8020 |
| Cc1cccc(C(=O)N2CCC(=O)N([C@H](COCc3ccc(Cl)cc3)Cc3ccccc3)CC2)c1 | 5883 |

Other structures
SMILES	Autofluor counter
CN(C)c1ccc(-c2ccnc3c2CC(C)(C(=O)Nc2ccc4c(c2)OCO4)O3)cc1 (stereo unspecified)	3541
COc1ccc(C2=CCCCCC2)cc1OC	3559
CCN(CC)C(=O)C1=C(C)N(Cc2ccc(F)cc2)C(=O)C(CC(=O)NCc2cccc3ccccc23)C1 (stereo unspecified)	3837
O=C(CN1CCN(C(=O)c2ccc(-c3nc4ccccc4s3)o2)CC1)Nc1cccc(F)c1	2983
CNc1cnc(-c2ccc(O)c(OC)c2)cn1	3472
Cc1ccc(C(=O)N/N=C/c2cccnc2)cc1Cl	3030
COc1ccc(Br)cc1C1=CC(=O)C[C@H](c2ccc(F)cc2)C1	3490
CC(C)Cc1ccc(-c2cc3nc(NCCOc4ccccc4)ccn3n2)cc1	3437
Cc1ccccc1S(=O)(=O)NC(=O)C1(C)CCN1C(=O)CCc1ccccc1 (stereo unspecified)	3884
CCC(c1nnnn1C1CCCC1)N1CCC2(CC1)C(=O)NCN2c1ccccc1 (stereo unspecified)	4951
CC(=O)Nc1ccc(CN2CCC2(C)C(=O)NC2CCN(Cc3ccccc3)CC2)cc1 (stereo unspecified)	3569
O=C(Nc1ccccc1N1CCOCC1)c1cccc2ccccc12	3525
CC1(C(=O)NS(=O)(=O)c2cccc(Cl)c2)CCN1C(=O)CCc1ccc(Cl)cc1Cl (stereo unspecified)	2851
Cc1ccc(S(=O)(=O)NN=C2CC(C)(C)OC2(C)C)cc1	3478
COc1cccc(OC)c1C(=O)OCC(=O)NCCNC(=O)COC(=O)c1c(OC)cccc1OC	4252
CC1(C(=O)NS(=O)(=O)c2cccc(Cl)c2)CCN1C(=O)Cc1ccsc1 (stereo unspecified)	4010
COc1ccc(C(O)c2nc(-c3cc(F)cc(Cl)c3)cs2)cc1 (stereo unspecified)	3627
CCNC(=O)C1(C)CCCN(C(=O)c2sccc2C)C1 (stereo unspecified)	3909
CC[C@@H](NC(=O)[C@H](Cc1ccccc1)NC(=O)CC[C@H]1O[C@@H](n2ccc(=O)[nH]c2=O)[C@H](O)[C@@H]1O)c1ccccc1	5936
COC1CC2C=C(C)C=CC=CC(=O)NC(c3ccccc3)CC=CCCC(O)CC(=O)C2=C1O (stereo unspecified)	5257
COc1ccc(NC(=O)c2sc(=O)n(Cc3ccc(S(=O)(=O)N(C)C)cc3)c2C)cc1	5230
CCN(c1ccccc1)S(=O)(=O)c1ccc(Cl)c(NC(=O)CSc2nc(N)cc(=O)[nH]2)c1	3982
COc1cc2c(NCCCCCO)ncnc2c(OC)c1OC	3740
CCOc1ccc(S(=O)(=O)NCCC(=O)N2CCN(C(C)=O)CC2)cc1	2811
C[C@H](CO)N1C[C@H](C)[C@@H](CN(C)Cc2ccc3cccnc3c2)OCc2cnnn2CCCC1=O	3427
Cc1cccc(C)c1-n1nnnc1C(c1cccc2ccccc12)N1CCC(n2c(=O)[nH]c3ccccc32)CC1 (stereo unspecified)	6182
Cc1cc(C)c2c(=O)n3c(nc2c1)C(CC(C)C)NC(=O)c1cccnc1-3 (stereo unspecified)	4051
CC1=C(C(=O)N2CCOCC2)CC(CC(=O)NCCCCc2ccccc2)C(=O)N1CCCN1CCCC1=O (stereo unspecified)	3455
CCCCN(C=O)c1c(CC)nc2ccc(C(=O)N(C)Cc3ccco3)cn12	3014
CC(C)NC(=O)C1(C)CCN1C(=O)c1ccccc1Oc1ccccc1 (stereo unspecified)	3905

Compound activity from PubChem BioAssay.
